GIV-Gai inh: inhibitors of GIV peptide binding to Galpha-i3, primary screen, biochemical, fluorescence polarization, FITC-GIV GBA peptide, rat Galphai3; Guanine nucleotide-binding protein G(i) subunit alpha-3 (Rattus norvegicus), P08753; percent of control (FP), % (no concentration beside the values); 90 min; active compounds read low; scaled: aluminum fluoride 0%, vehicle 100%; 210,000 compounds, 0.42% hits;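 active = replicate mean at 85% of control or lower, very high polarization wells dropped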;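 note: wells of about 15 µL received 100 nL stock; the first replicate is given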
Target sequence (P08753 whole entry, looked up): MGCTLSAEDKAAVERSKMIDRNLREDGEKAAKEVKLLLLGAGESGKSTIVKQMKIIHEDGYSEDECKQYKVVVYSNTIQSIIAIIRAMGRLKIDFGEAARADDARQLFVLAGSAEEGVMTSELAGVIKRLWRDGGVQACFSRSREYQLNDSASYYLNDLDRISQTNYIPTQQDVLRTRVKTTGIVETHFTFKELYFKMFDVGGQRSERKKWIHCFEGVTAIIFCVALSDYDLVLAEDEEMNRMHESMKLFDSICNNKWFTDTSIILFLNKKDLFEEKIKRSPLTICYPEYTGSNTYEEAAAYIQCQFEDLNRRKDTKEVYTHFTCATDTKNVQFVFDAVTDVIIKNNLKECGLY
Sa growth 42C: S. aureus growth inhibition at 42 and 30 °C, primary screen, LtaS inhibitor project, RN4220, two temperatures | OD600, 20 h, 42 °C; active compounds read low | relative growth, % (concentration not given with the values) | 170,000 compounds, 0.53% hits | AID 720641, 2013;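 active = growth at 42 °C up to 50% and 20 or more points under that at 30 °C, or under 10% at both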;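 note: 300 nL library stock went into each well; scaled to the means of positive and negative controls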
HCMV NEC inh: inhibitors of HCMV UL50-UL53 interaction, biochemical, HTRF; HCMV UL50-UL53 nuclear egress complex (human cytomegalovirus); normalized percent inhibition; inhibition, % (no concentration beside the values); 190,000 compounds, 0.15% hits; AID 1918969, 2023;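 active = both replicates at 50% or more, plus weaker picks with an unusually low signal ratio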;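 note: stock transfer was 100 nL into about 20 µL; 0% = negative control wells and 100% = wells with untagged competitor protein; inactives centre near -12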
Sa growth 42C second temp: further read-out of Sa growth 42C, marked with its call; relative growth, %; measured here: growth at 30 °C;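 optical density after 20 h as mean of two plates; 100% = untreated growth and lower means inhibition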
Numbers without * were called inactive; · = not tested or not shown; & = joins results of further samples.

The line under a structure holds: Sa growth 42C second temp	GIV-Gai inh	HCMV NEC inh	Sa growth 42C
- CCOC(=O)Cn1c(C)c(Sc2ccccc2)c2ccccc21
  105	·	-1	119
- Cc1ccc(CN(C(=O)COc2ccc(F)cc2)C2CCS(=O)(=O)C2)o1 (configuration not stated)
  87	105	-13	106
- Cc1ccc(CNC(C)c2ccccc2)s1 (configuration not stated)
  92	106	-15	100
- COc1ccccc1CNC(=O)C1CCN(S(=O)(=O)c2cccc3nonc23)CC1
  96	105	-15	99
- c1ccc(Nc2cnccn2)cc1
  93	110	·	96
- COc1ccc(CCNC(=O)CSc2ccccn2)cc1
  82	·	-21	102
- CCOC(=O)c1nc2ccccc2nc1NCc1ccc2c(c1)OCO2
  ·	93	-13	·
- COc1ccc(CC(=O)NCCc2nc(-c3ccccc3)n[nH]2)cc1
  ·	98	-13	·
- CC(C)N(C(=O)CNc1cc(Cl)ccc1Cl)c1ccccc1
  93	·	-6	94
- O=C(NC1CCCCC1)C1c2ccccc2C(=O)N1C1CCCC1 (configuration not stated)
  105	102	8	101
- Cc1cc(C)n2nc(SC(C)C(=O)NC3CC3)nc2n1 (configuration not stated)
  95	105	4	92
- O=C(O)C1CCCCC1C(=O)N1CC=C(c2ccccc2)CC1 (configuration not stated)
  79	105	-27	86
- Cc1cc(N(C)C)nc(N2CCC(C(=O)O)CC2)n1
  ·	98	2	·
- CC(=O)N1c2ccccc2C(=O)C1N1CCCCC1 (configuration not stated)
  85	99	-14	106
- COc1ccc(-c2csc3ncnc(Nc4cccc(F)c4)c23)cc1
  99	100	·	95
- O=S(=O)(c1ccc(-n2cnnn2)cc1)N1CCCC2CCCCC21 (configuration not stated)
  99	104	-34	99
- CC1/C(=N/O)CC(c2ccccc2)NC1c1ccccc1 (configuration not stated)
  95	102	-13	90
- CC1(C)Cc2ccccc2/C(=C/C(=O)N2CCCCCC2)N1
  92	104	-46	74
- CCOc1ccccc1-n1cc[nH]c(=O)c1=O
  ·	105	-26	·
- O=C(O)C1(c2ccc(O)cc2)CCCC1
  99	103	-3	111
- NCCN1C(=O)CSC1=O
  88	·	-14	85
- O=C1CC(c2ccccc2)=NN1
  75	102	-4	94
- COc1ccccc1N(CC(=O)Nc1sc2c(c1C(N)=O)CCC2)S(=O)(=O)c1cccs1
  100	·	0	106
- Cn1c(=O)c2c(ncn2C/C=C/c2ccccc2)n(C)c1=O
  92	99	-25	95
- O=C(CSc1ccc(F)cc1)OCCN1CCOCC1
  96	·	-19	96
- CCC(=O)Nc1nnc(C(C)(C)C)s1
  101	106	-20	94
- Cc1oc2ccccc2c1CNC(N)=O
  93	108	-11	102
- CCSc1nc2ncnc(N)c2[nH]1
  72	103	·	99
- Cc1cc(N)n(N)c(=O)c1
  95	·	-21	82
- COc1ccccc1C(=O)Nc1nc2n(n1)C(c1ccc(F)cc1)C=C(c1ccc(Cl)cc1)N2 (configuration not stated)
  42	125	-35	51
- O=C1CCN(S(=O)(=O)c2cccc(S(=O)(=O)c3ccc(Cl)cc3)c2)C2CCCCC12 (configuration not stated)
  105	·	-7	102
- O=C(Nc1nccs1)c1ccccc1-c1nc(-c2ccc(Cl)cc2)no1
  ·	103	16	·
- CCOc1ccccc1C(=O)N(Cc1sccc1C)C1CCS(=O)(=O)C1 (configuration not stated)
  83	102	-12	95
- O=C(Nc1ccc2c(c1)CCC2)C1CCN(c2ccc(S(=O)(=O)N3CCCC3)cc2)CC1
  109	102	4	88
- CN1C(c2ccc(Br)cc2)=NN=C(c2ccccc2)c2cc(Cl)ccc21
  ·	107	19	·
- Cc1cc(Sc2nc(C)cc(C)c2C#N)nc(N)n1
  79	102	-5	97
- CCOC(=O)/C(=N\Nc1ncnc2ccccc12)c1ccc(OC)cc1
  93	·	-57	103
- Cn1cc(C(=O)NCc2cccs2)c(=O)c2cc(S(=O)(=O)N3CCOCC3)ccc21
  93	106	·	110
- Cc1cccc(C(=O)N2CCN(c3ncnc4c3c(-c3ccccc3)cn4-c3ccccc3)CC2)c1
  ·	103	15	·
- CCC(C)NC(=O)c1sc2nc(C)nc(N(C)c3ccc(C(C)C)cc3)c2c1C (configuration not stated)
  85	106	·	92
- Cc1cccc(N2CCN(CC(=O)NCc3cccs3)CC2)c1C
  78	111	4	96
- COc1cc(/C=N/n2cnc3scc(-c4cccs4)c3c2=O)ccc1O
  82	·	-26	132
- CCN(Cc1ccccc1)C(=O)Cn1cc2c(n1)-c1c(oc(C(=O)N3CCCC3)c1C)CC2
  73	103	·	107
- O=C(Cn1nc2ccc(SCc3ccc(Cl)cc3)nn2c1=O)Nc1ccccc1
  ·	104	-42	·
- Cc1c(-c2nsc(NC(=O)c3cccc(Cl)c3)n2)nnn1-c1ccccc1C(F)(F)F
  99	104	·	111
- C=CC[C@H](N)C(=O)O
  ·	107	-23	·
- Cc1ccc(NC(=O)CN(C)S(=O)(=O)c2ccc3nc(-c4ccccc4)[nH]c3c2)cc1
  ·	99	8	·
- Cc1cc(C)c2c(n1)sc1c(=O)n(-c3ccccc3C(F)(F)F)nnc12
  101	109	0	97
- CN1CCN(c2ncc3c(n2)CC(c2cc(F)cc(F)c2)CC3=O)CC1 (configuration not stated)
  ·	98	-21	·
- CCc1ccc(NC(=O)NCc2cccn2Cc2ccccc2)cc1
  ·	109	3	·
- CCCOC(=O)COc1ccc2c3c(c(=O)oc2c1C)CCCC3
  94	108	10	97
- CN(C)c1ccc(C(CNC(=O)CN2C(=O)c3ccccc3C2=O)N2CCc3ccccc3C2)cc1 (configuration not stated)
  ·	102	-40	·
- COC(=O)c1cc2ccsc2n1CC(=O)Nc1ccc(F)cc1
  ·	105	4	·
- CCOC(=O)c1c(NC(=O)COc2ccc(Br)cc2)sc2c1CCCC2
  93	105	·	126
- COc1cc2cc3c4c(cc(OC)c(OC)c4c2cc1OC)CCN3C
  3.0*	·	67*	6.6*
- COc1ccc(/C=C2\SC(N)=NC2=O)cc1OCc1ccc(Cl)cc1
  ·	107	-7	·
- NC(=O)C1CCN(C(=O)/C=C2\Sc3ccccc3NC2=O)CC1
  104	109	-37	95
- CCn1c(SCc2ccccc2)nnc1-c1ccncc1
  85	·	-8	102
- NCCCNC(=O)c1ccc(/C=N\O)nc1
  90	96	-44	102
- CS(=O)(=O)N(Cc1ccccc1)c1ccc(C(=O)Nc2ccc(Cl)cc2)cc1
  99	108	4	96

Following part
The line under a structure holds: Sa growth 42C second temp	GIV-Gai inh	HCMV NEC inh	Sa growth 42C
- Cc1nn2cnnc2c(C)c1CCC(=O)Nc1ccc(F)cc1F
  ·	108	15	·
- COc1ccc(NC(=O)c2ccco2)cc1NC(=O)C(C)Oc1ccc(Cl)cc1Cl (configuration not stated)
  54	109	4	94
- CCN(CC)c1ccc(-c2nc(NC(C)=O)c3c(=O)oc4ccccc4c3n2)cc1
  61	120	-8	95
- CC(C)N1C(=O)c2ccccc2N(Cc2ccccc2)S1(=O)=O
  90	102	-5	85
- CCC1CN(C(=O)N2CCC(C(=O)NCCc3ccc(OC)cc3OC)CC2)c2cc(C)ccc2O1 (configuration not stated)
  80	108	11	89
- CCc1ccc(C(=O)c2cn(CC(=O)Nc3ccc4c(c3)OCO4)c3ccc(OC)cc3c2=O)cc1
  85	104	-42	101
- CC1=C(C)C(=O)N(c2ccc(C(=O)O)cc2)C1=O
  91	·	-70	82
- Cc1nn(CCCC(=O)NCc2ccc3c(c2)OCO3)c(=O)c2c(-n3cccc3)n(-c3ccccc3)nc12
  ·	101	-26	·
- CCC1=NN(C(=O)c2cccc(C)c2)C(O)(c2ccc(Br)cc2)C1 (configuration not stated)
  ·	102	-4	·
- COc1ccc(-c2nc3ccccc3c(=O)n2OC(=O)/C=C/c2ccc(Br)cc2)cc1OC
  ·	108	-10	·
- COc1ccc(NC(=O)CSc2nc3nc(C)c(Cc4ccc(C)cc4)c(C)n3n2)cc1OC
  89	101	·	112
- C=CCn1c(SCC(=O)c2ccc(OC)c(OC)c2)nc2sc3c(c2c1=O)CCC3
  ·	101	-2	·
- COc1ccc(NC(=O)c2cnn(-c3ccc(Br)cc3)c2)c(OC)c1
  ·	108	-22	·
- COC(=O)C1=C(C)Nc2nnnn2C1c1ccc([N+](=O)[O-])cc1 (configuration not stated)
  ·	101	-68	·
- CCOc1ccccc1-c1nc(COc2ccccc2-c2nnc(-c3ccccc3)o2)c(C)o1
  ·	103	-29	·
- CCCc1cc(=O)[nH]c(Nc2ccc(C)c(O)c2)n1
  81	103	38	101
- COc1cc(=O)n(-c2ccccc2C)nc1C(=O)NC(c1ccccc1)c1ccccc1
  ·	100	24	·
- CC(C)c1cccc(NC(=NCc2ccncc2)NC(=O)c2ccc(CN3CCOCC3)cc2)c1
  ·	105	-25	·
- CCc1nc(-c2cc(S(=O)(=O)N3CCC(C(=O)Nc4ccccc4OC)CC3)c(C)s2)no1
  ·	107	-4	·
- O=C1CCCC2=C1C(c1ccc(Cl)cc1)c1c(ccc3ccccc13)N2 (configuration not stated)
  72	99	·	98
- Cc1cc(Cl)ccc1NC(=O)COC(=O)c1cccs1
  84	·	3	86
- COc1cccc(CNC(=O)C(=O)Nc2ccc3nc4n(c(=O)c3c2)CCCCC4)c1
  91	102	-8	112
- CCN=C1S/C(=C\c2cn(C(C)=O)nc2-c2ccccc2)C(=O)N1CC
  91	·	-13	102
- COc1cccc(OC)c1OC(=O)c1c(F)cccc1F
  92	·	-27	89
- CC(=O)OCC(=O)[C@@]12OC3(CCCC3)O[C@@H]1CC1C3CCC4=CC(=O)C=C[C@]4(C)[C@@]3(F)[C@@H](O)C[C@@]12C (some centres not stated)
  85	·	-36	92
- O=C1C(=O)N(CCCN2CCOCC2)C(c2ccccc2F)/C1=C(\O)c1ccc2c(c1)OCCO2 (configuration not stated)
  97	101	-21	93
- CCOC(=O)c1c(NC(=O)c2ccc(S(=O)(=O)N(C)C)cc2)sc2c1CCN(C)C2
  79	105&114	·	103
- Cc1c(-c2nc(-c3ccccn3)no2)oc2ccc(S(=O)(=O)N3CCOCC3)cc12
  ·	101	13	·
- Oc1ccc(C2Oc3ccccc3C3CC(c4ccccc4O)=NN32)cc1 (configuration not stated)
  39	114	-34	60
- COc1cccc(Sc2ccc(N3CCCC(C(=O)NCc4ccc5c(c4)OCO5)C3)nn2)c1 (configuration not stated)
  ·	106	-1	·

Single records (already shown).
Record of CCC1=NN(C(=O)c2cccc(C)c2)C(O)(c2ccc(Br)cc2)C1 (configuration not stated) : Sa growth 42C second temp = ·; GIV-Gai inh = 102; HCMV NEC inh = -4; Sa growth 42C = ·
Record of Cc1c(-c2nc(-c3ccccn3)no2)oc2ccc(S(=O)(=O)N3CCOCC3)cc12 : Sa growth 42C second temp = ·; GIV-Gai inh = 101; HCMV NEC inh = 13; Sa growth 42C = ·

An excerpt from above in order of the Sa growth 42C second temp value, ascending:
SMILES	Sa growth 42C second temp
O=C1CCCC2=C1C(c1ccc(Cl)cc1)c1c(ccc3ccccc13)N2 (configuration not stated)	72
Cc1cc(Cl)ccc1NC(=O)COC(=O)c1cccs1	84
CC1=C(C)C(=O)N(c2ccc(C(=O)O)cc2)C1=O	91
COc1cccc(OC)c1OC(=O)c1c(F)cccc1F	92

Next records follow:
The line under a structure holds: Sa growth 42C second temp	GIV-Gai inh	HCMV NEC inh	Sa growth 42C
- Cc1ccc(NC(=O)Cn2cc(S(=O)(=O)N3CCCC3)c(S(=O)(=O)N3CCCC3)c2)c(C)c1
  84	107	·	101
- C=Cc1ccc(Cn2c(C)c(CNCc3ccccc3C)c(C(=O)O)c2C)cc1
  87	107	9	84
- Cc1cc2c(cc1C)NC(c1ccc(N(C)C)cc1)C1=C(CC(C)(C)CC1=O)N2 (configuration not stated)
  80	103	-40	88
- COC(=O)C(=Nc1ccc(NC(C)=O)cc1)C(F)(F)F
  70	·	-20	111
- N#CCCC1CCCCCCCCCCC1O (configuration not stated)
  90	105	-19	83
- COc1ccc2c(c1)-c1c(ssc1=Nc1ccc(S(N)(=O)=O)cc1)C(C)(C)N2
  95	111	-5	110
- COc1cccc(OCC(=O)Nc2cccc(C(=O)O)c2C)c1
  90	105	-1	98

Screening results from PubChem.
